Sfp PPTase inh: Sfp phosphopantetheinyl transferase inhibition | actives 3.5% (n = 310,000) | Biochemical Sfp PPTase activity, qHTS | Q9F4F7 | Potency, µM, for the others: max response, negative = inhibition, usual class: inhibitors; active means well fitted inhibition curve with a large enough effect; inconclusive means small, poorly fitted or top-dose-only effect, or another doubt; inactive means no such curve, though single readings can be large or run the other way;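 further: the enzyme is Sfp with the accession as filed and its product quenches rhodamine fluorescence; potency means the concentration at half of the fitted maximal effect; 0% = enzyme reaction without inhibitor and -100% = no enzyme wells; top concentration of the series not given in the record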
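Sfp 15 nM + cpd, 15 min RT; start w/ rhodamine-CoA 5 uM, BHQ-2-YbbR 12.5 uM (final); 50 mM Hepes pH 7.6, 10 mM MgCl2, 0.01% NP-40, 0.01% BSA; read 525/598 nm at 0 and 30 min.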
ClpP mod: qHTS Assay for Activators of ClpP. purified B. subtilis ClpP, FRET peptide cleavage, 20 min. AID 651965, 2013. Potency, µM (series often up to 57.5 µM), for inactives: at the top dose activity change, negative = active. actives 1.9% (n = 340,000); active = well fitted falling curve with a large enough effect; inconclusive = small, poorly fitted or top-dose-only effect; inactive = no such curve, though single readings can be large or run the other way; further: potency means the concentration at half of the fitted maximal effect; the source files actives as falling curves though it sought activators and does not explain the sign; nearly all actives have a fitted effect of over 65% in size; many hits overshoot -100%
Target sequence (P80244 whole entry, looked up): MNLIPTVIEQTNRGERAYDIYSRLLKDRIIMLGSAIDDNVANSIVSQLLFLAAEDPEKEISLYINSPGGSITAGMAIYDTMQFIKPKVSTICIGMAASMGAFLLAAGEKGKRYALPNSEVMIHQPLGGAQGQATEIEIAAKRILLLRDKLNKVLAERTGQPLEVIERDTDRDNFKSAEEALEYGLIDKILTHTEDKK
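Purified B. subtilis ClpP, 10 microg/mL final in Tris/HCl pH8 with KCl, BSA, glycerol and Tween-20, cleaved an Abz/nitrotyrosine-quenched decapeptide. Fluorescence (ex 320, em 430) was read at 0 and 20 min at room temperature. Delta was normalized to 5.8 microM ADEP and DMSO/no-enzyme controls.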
D2 ag: human D2 receptor agonism in beta-arrestin assay | P14416 | activation, % (concentration not given with the values) | actives 0.084% (n = 360,000) | DiscoveRx PathHunter D2 beta-arrestin, luminescence, 90 min; 100% = 57 uM dopamine signal; in the data active = activation above about 40%; inconclusive = about 15% to 40%; inactive = below about 15%; further: compound concentration not given in the record; the text of the record calls up to 30% inactive
Target sequence (P14416 whole entry, looked up): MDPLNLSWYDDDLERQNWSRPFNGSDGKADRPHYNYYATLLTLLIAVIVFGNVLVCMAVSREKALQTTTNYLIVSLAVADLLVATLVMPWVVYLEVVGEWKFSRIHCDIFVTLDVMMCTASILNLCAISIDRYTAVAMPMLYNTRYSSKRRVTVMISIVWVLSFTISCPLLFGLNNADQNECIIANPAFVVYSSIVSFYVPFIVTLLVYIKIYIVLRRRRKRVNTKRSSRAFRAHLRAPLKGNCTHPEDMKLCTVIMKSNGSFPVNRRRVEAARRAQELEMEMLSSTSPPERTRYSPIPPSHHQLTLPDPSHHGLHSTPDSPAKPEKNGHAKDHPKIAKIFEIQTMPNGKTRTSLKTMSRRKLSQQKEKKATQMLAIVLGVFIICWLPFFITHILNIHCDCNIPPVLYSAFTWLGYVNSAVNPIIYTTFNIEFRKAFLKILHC
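Agonist mode: compounds alone added to overnight-plated D2 PathHunter cells for 90 min at 37 C, with 57 uM final dopamine (EC100) defining full response. Beta-arrestin recruitment detected by chemiluminescent reagent, read after 1 h at ambient temperature.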
Menin-MLL FL inh: displaces fluorescein MLL peptide from human menin | 290,000 tested, under 10 active | AID 1766 | Fluorescence polarization, fluorescein-MLL peptide displacement from menin | FP activity change, % at 61.4 µM; inconclusive = falling polarisation curve, or a change in total fluorescence; inactive = total fluorescence flat and polarisation flat or rising; no compound was filed as active; the % refers to the polarisation; negative = inhibition;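 further: % of control where 0% means no effect; inhibitors lower the polarisation; unlabelled MLL peptide was the positive control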
PINK1 expr mod: changes PINK1 expression; PINK1 immunofluorescence, high-content cytometry, 24 h; Potency, µM (series often up to 76.6 µM), without a hit: at the top dose activation (PINK1 increase), actives largely listed as activators; actives 0.2% (n = 410,000); active = well fitted activation curve with a large enough effect; inconclusive = small, poorly fitted or top-dose-only effect; inactive = flat fitted curve, though single readings scatter; cell line not stated here;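 further: potency means the concentration at half of the fitted maximal effect; % of control where 0% means no effect; nearly all actives have a fitted effect of over 65% in size; a mitochondrial uncoupler was the plate control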
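Stable cell line, 250 cells/well, 12 h attachment; compounds pinned at 5 concentrations, 24 h; CCCP control. Fixed with nuclear dye, primary antibodies 12 h at 10 degrees C, secondary plus cell stain; laser-scanning cytometer read.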
gsp antagonist: antagonizes gsp, the McCune-Albright syndrome mutation; gsp-mutant cells, cAMP HTRF, 30 min; control for the full effect not named in the record; Potency, µM (series often up to 76.9 µM), for the others: top-dose activity change, negative = inhibition, usual class: inhibitors; actives 0.4% (n = 340,000); AID 624288; active = falling curve of any shape with a large fitted effect; inconclusive = falling curve, mostly with a smaller effect; inactive = flat or rising curve; cell line not stated here;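 further: intracellular cAMP measured with PDE inhibitor Ro 20-1724 present during compound exposure; potency means the concentration at half of the fitted maximal effect; on the % scale 0 is the no-effect control and ±100 the full control effect; nearly all actives have a fitted effect of over 65% in size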
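G418-selected cells were plated in DMEM/10% FBS for 16-24 h at 37C, then treated with compounds plus the PDE inhibitor […] (300 uM solution added) for 30 min at 37C. Intracellular cAMP was measured by HTRF after 30 min lysis at room temperature.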
gsp agonist: gsp mutant agonism | gsp mutant cells, cAMP HTRF, 30 min; control for the full effect not named in the record | Potency, µM (titrated, usually from 76.9 µM), without a hit: at the highest dose activation (cAMP increase), actives largely listed as activators | actives 0.13% (n = 340,000); active = well fitted activation curve with a large enough effect; inconclusive = small, poorly fitted or top-dose-only effect, or another doubt; inactive = no such curve, though single readings can be large or run the other way; cell line not stated here;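 further: phosphodiesterase inhibitor Ro 20-1724 added with compounds to block cAMP breakdown; potency means the concentration at half of the fitted maximal effect; nearly all actives have a fitted effect of over 60% in size; about a fifth of the inactives were tested at one dose only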
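Cells stably selected in G418 were plated at 2000/well, grown 16-24 hr, then given compounds in DMSO with the PDE inhibitor […] (300 uM solution added) for 30 min at 37C; cAMP was read by HTRF.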
An asterisk follows results filed as active; ? = inconclusive; · = no result given; & = joins results of further samples; [ ] = another dose, or the depositor's remark. These rows are one share of the data; the hit share may differ from the screen's.

Sample of the layout (two entries):
SMILES	Sfp PPTase inh	ClpP mod	D2 ag	Menin-MLL FL inh	PINK1 expr mod	gsp antagonist	gsp agonist
CC(C)OC(=O)Nc1cccc(Cl)c1	-4%	·	·	-0.7	0.6%	·	·
O=C(Nc1nc2nc(-c3ccccc3)cc(=O)n2[nH]1)c1ccccc1	15%	?	-1.0	-2.3	0.9%	4%	?

All compounds of this part, from the start:
SMILES	Sfp PPTase inh	ClpP mod	D2 ag	Menin-MLL FL inh	PINK1 expr mod	gsp antagonist	gsp agonist
CC(C)OC(=O)Nc1cccc(Cl)c1	-4%	·	·	-0.7	0.6%	·	·
O=C(Nc1nc2nc(-c3ccccc3)cc(=O)n2[nH]1)c1ccccc1	15%	?	-1.0	-2.3	0.9%	4%	?
CC(C)Oc1ccc(C2C(C#N)=C(N)Oc3c2c(=O)oc2ccccc32)cc1 (configuration not stated)	-1%	89%	-0.4	2.6	-0.5%	-5%	?
N#Cc1ccc(CN2CC[C@@]3(CCCN(C(=O)Oc4ccccc4)C3)C2)cc1	25%	·	·	3.0	-0.9%	·	·
CC(N)Cc1c[nH]c2cc3c(cc12)OCCO3 (configuration not stated)	4%	-0.8%	-2.7	2.2	-0.3%	-6%	-11%
Cc1cccc(OC(=O)N2CCOCC2)c1	-3%	2.2%	0.6	-0.8	-1.0%	10%	-8%
Cc1ncoc1C(=O)NCC1=C(c2ccc3ccccc3c2)C[C@@H]2CC[C@H]1N2Cc1ccco1	·	-0.3%	-9.3	·	-0.4%	·	-58%[inhibitor]
O=C(OC1Cc2c(O)cc(O)cc2OC1c1cc(O)c(O)c(O)c1)c1cc(O)c(O)c(O)c1 (configuration not stated)	18µM*	·	·	22	-1.6%	·	·
O=[N+]([O-])c1ccc(C2C3C(c4ccccc4)=NC4(CCCC4)N32)cc1 (configuration not stated)	16%	·	-1.5	1.2	0.7%	-6%	-2%[15.4 µM]
Cc1cc(N(CCCl)CCCl)ccc1C=NNC(=O)Cc1cc(=O)oc2cc(O)ccc12	·	28µM*	4.4	·	0.2%	?	-4%
OCc1cnc[nH]1	17%	-0.5%	-7.2	4.9&-1.5	1.1%	7%	·
O=C1NC(=S)NC(=O)C1=Cc1ccc2c(c1)CCN2CCCCl	16µM*	-3.3%	-6.4	?	0.9%	-6%	-5%
OC(c1cccc(Cl)c1)(c1cccc(Cl)c1)C1CN2CCC1CC2 (configuration not stated)	-41%	·	-11	3.0	-1.4%	5%	8%[15.4 µM]
CN1CCN(c2ccc([N+](=O)[O-])c3cccnc23)CC1	-2%	-2.5%	-2.4	5.1	2.5%	-7%	-10%
CCOP(=O)(C#CC(C)(C)C)C(C)(O)c1ccccc1 (configuration not stated)	3%	1.4%	-3.0	1.3	2.4%	16%	10%
COc1ccc(C(C)=O)cc1CN1CC=C(c2ccccc2)CC1	-13%	·	-1.4	-0.5	2.7%	7%	2%
N#CCCn1cc(C(=O)Nc2ccccc2Br)c(-c2ccc3c(c2)OCCO3)n1	15%	-2.4%	0.1	3.1	0.2%	-10%	14%
O=C(Nc1ccccc1Cl)Oc1ccc(Cl)cc1Cl	4%	-2.9%	-3.2	-11	-0.4%	1%	-3%
CC(C)C1(C)N=C(c2nc3ccccc3cc2C(=O)O)NC1=O (configuration not stated)	-3%	-1.2%	0.9	-1.8	2.7%	11%	0%
Cc1ccc(-n2cc(CNC(C)Cc3cnccn3)c(-c3cccc(C)c3)n2)cc1 (configuration not stated)	?	0.5%	-5.5	1.8	1.4%	6%	6%[15.4 µM]
CN(C)N=O	·	-0.9%	1.7	·	-0.9%	-6%	·
COC(=O)C1=C(c2ccccc2OCc2ccccc2)C[C@@H]2CC[C@H]1N2C(=O)NCc1ccc(Cl)cc1	·	-0.4%	0.0	·	1.4%	?	4%
O=c1[nH]c2ccccc2n1C1CCN(C(CCc2ccccc2)c2nnnn2C2CCCCC2)CC1 (configuration not stated)	·	-1.2%	2.9	·	0.9%	·	·
O=S(=O)(c1ccccc1)N1CCCCC1c1cccnc1 (configuration not stated)	19%	0.3%	-0.6	1.9	·	1%	-22%
CN1CCN(c2ccc([N+](=O)[O-])c3no[n+]([O-])c23)CC1	-23%	-6.7%	3.1	?	7.8%	?	-2%[15.4 µM]
CC1C(c2ccccc2)OCCN1C (configuration not stated)	·	1.3%	-5.3	·	-1.1%	13%	5%
CN1CCc2nc3ccc(F)cc3c(C(N)=O)c2C1	18%	-6.3%	-2.8	-1.0	-0.4%	-3%[15.4 µM]	27%
O=C(Nc1ccc(F)cc1)Oc1ccc[nH]c1=O	?	-4.0%	-0.3	-1.7	2.0%	-4%	-15%
O=c1cc(-c2ccc(O)c(O)c2)oc2cc(O)cc(O)c12	?	-1.5%&1.1%	3.5	?	-2.0%&-0.8%	-6%	·
Cc1ccc(S(=O)(=O)N(C)C/N=C(\N)N[N+](=O)[O-])cc1	17%	·	-0.8	-0.7	-1.0%	6%	-1%[15.4 µM]
CC(=O)O[C@H]1C(=O)[C@@]2(C)C([C@H](OC(=O)c3ccccc3)[C@]3(O)C[C@H](OC(=O)[C@H](O)[C@@H](NC(=O)Cc4ccccc4)c4ccccc4)C(C)=C1C3(C)C)[C@]1(OC(C)=O)CO[C@@H]1C[C@@H]2O (some centres not stated)	15%	-2.7%	-8.4	-1.4	5.3%	-9%	-81%[inhibitor]
CCN(CC)CCCOC(=O)C(OC)(c1ccccc1)c1ccccc1	14%	-1.2%	-3.6	0.5	-1.2%[38.3 µM]	-3%	9%
CCC(=NCc1ccco1)c1c(O)n(-c2ccc(Cl)cc2)c(=O)[nH]c1=O	8%	-10%	-5.6	5.5	6.7%	-1%	-18%[15.4 µM]
CCN(CC)C(=O)c1ccc(NC(=O)c2ccc(-n3cncn3)c([N+](=O)[O-])c2)cc1	·	-1.8%	1.2	·	0.3%	-1%	-2%[15.4 µM]
C(#CCN1CCOCC1)COCc1ccccc1	14%	-5.3%	-1.6	-1.4	0.4%	9%	-17%
Fc1ccc(N2Cc3ccccc3-n3nncc3C2)cc1	·	-0.9%	-1.6	·	-0.1%	·	·
COC(=O)C1=C(c2ccc(S(C)(=O)=O)cc2)C[C@@H]2CC[C@H]1N2C(=O)NCc1cccc2ccccc12	·	-0.6%	0.3	·	-0.6%	-14%	?
O=c1[nH]c(CN2CCNCC2)nc2ccccc12	-15%	-20%	-0.2	0.4	0.1%	3%	-59%[inhibitor]
CC(C)c1ccccc1NC1=NCCCS1	0%	·	-3.0	2.1	-0.9%	7%	-6%
CCC(=O)OC1(Cc2ccc(CC)cc2)CC(C)N(C)CC1C (configuration not stated)	17%	0.5%	-6.7	4.6	-0.6%	-1%	-14%[15.4 µM]
CC(=O)OC1C2CCC1C(N1CCCC1)CC2 (configuration not stated)	19%	-2.8%	-0.5	16	0.7%	11%	6%
O=C(Cn1ncc2ccsc2c1=O)N1CCC2(CC1)OCCO2	18%	-3.9%	-3.7	1.7	3.0%[38.3 µM]	12%	5%
N#C/C(N)=C(/N)C#N	·	-8.2%	-4.7	·	1.4%	7%	·
c1cc(CN2CCC3(CCNCC3)CC2)ccn1	0%	·	·	1.0	-0.9%	·	·
CN1CCN(c2nc3c(c(=O)[nH]2)CCC3)CC1	29%	0.0%	1.4	2.7	2.1%	-10%	-11%
CN(C)CC1Oc2ccccc2OC1(O)c1ccccc1 (configuration not stated)	40µM*	·	-2.9	2.2	-1.2%	10%	7%[15.4 µM]
CC(=O)OC(C)(C)/C=C/C(=O)C(C)(O)C1[C@H](O)C[C@@]2(C)C3CC=C4C(CC[C@@H](O)C4(C)C)[C@]3(CO)C(=O)C[C@]12C (some centres not stated)	-1%	-1.6%	2.0	-6.6	-1.2%	15%	7%[15.4 µM]
O=C1NC(=S)N(c2ccc(Cl)cc2)C(=O)/C1=C/N1CCN(C(=O)c2ccco2)CC1	45µM*	0.3%	0.9	?	1.4%	7%	13%
O=C1C2CCCN2C(c2cccc(Cl)c2)N1c1ccccn1 (configuration not stated)	16%	-0.3%	-3.6	-0.4	-1.8%	-6%	-3%
O=C(Nc1ccccc1)N1CCC2(CC1)OCCO2	13%	0.1%	1.2	-6.5	1.3%	1%	-4%
COCCCN1Cc2ccccc2C1=N	0%	-0.1%	-2.5	-6.2	·	2%	-34%[inhibitor]
CCC(=NCc1cc(OC)cc(OC)c1)c1c(O)[nH]c(=O)[nH]c1=O	1%	-1.5%	5.2	1.3	-1.4%	3%	20%
CCn1c(O)c(/C=N/NC(=O)c2ccccc2)c(=O)n(CC)c1=S	27%	·	-6.9	?	-0.6%	-10%	?
NC(=O)c1ccc(N)nc1	7%	-11%	2.2	-0.8	0.4%	9%	·
Fc1ccc(C2=CCN(C(c3cccs3)c3nnnn3CCc3ccccc3)CC2)cc1 (configuration not stated)	14%	-3.3%	-0.5	7.7	1.2%	4%	-9%
Cc1cccc(-n2c(=S)[nH]c3ccccc3c2=O)n1	50µM*	-1.0%	-2.1	1.0	0.3%	10%	-6%[15.4 µM]

(further entries)
SMILES	Sfp PPTase inh	ClpP mod	D2 ag	Menin-MLL FL inh	PINK1 expr mod	gsp antagonist	gsp agonist
Cc1nn(Cc2ccccc2)c(C)c1C(=O)OCC(=O)NCc1ccco1	-20%	-0.1%	-1.7	1.3	0.9%	2%	21%
C=CCn1c(O)c(C(C)=NC2CC2)c(=O)[nH]c1=O	13%	-2.2%	-2.7	4.8	-1.7%	6%	?
O=c1[nH]c(O)c(C=Nc2ccccc2Sc2ccccc2)c(=O)[nH]1	16%	·	-0.5	8.0	-2.3%	12%	-9%[15.4 µM]
CN(C)C(=O)Oc1ccc2c(c1)O/C(=C\c1ccc(Cl)cc1)C2=O	-9%	-6.8%	2.6	2.3	6.6%	-5%	-12%
Cc1ccc(O)c(C)c1	·	0.0%	6.6	·	-0.2%	0%	·
